Screens (PubChem BioAssay)
RanGTP-Impb inh: disruptors of Ran-importin-beta complex formation – biochemical, FRET, CFP-Ran, YFP-importin-beta, homogeneous, primary screen; inhibition, % (no concentration beside the values); 300,000 tested, 1.1% active; AID 2216; cell-free CFP-Ran/YFP-importin-beta FRET ratio;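 active = most replicates above 15%; inconclusive = exactly half above 15%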;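 note: 0% = DMSO wells and 100% = Ran loaded with GDP instead of GTP; wells of about 40 µL received 100 nL stock; the first replicate is given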
E coli growth: E. coli growth inhibition; AID 1053175; 330,000 tested, 0.21% active; OD600 absorbance (test concentration not listed); Escherichia coli growth, OD600, 23 h; hits give low values;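 active = OD600 absorbance below the run mean of sample wells minus 3.6 SD, in any replicate, cut at about 0.56 in these data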;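 note: stock transfer was 300 nL into about 60 µL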
UCH37 DUB inh: blocks the human deubiquitinase UCH37; Q9Y5K5; purified proteasome/UCH37, Ub-AMC cleavage fluorescence; 330,000 tested, 0.33% active; inhibition, % (concentration not given with the values);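 active = mean of two replicates above 20%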;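 note: 0% = compound-free wells with enzyme and 100% = wells lacking proteasome; stock transfer was 100 nL into about 20 µL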
Target sequence (Q9Y5K5 whole entry, looked up): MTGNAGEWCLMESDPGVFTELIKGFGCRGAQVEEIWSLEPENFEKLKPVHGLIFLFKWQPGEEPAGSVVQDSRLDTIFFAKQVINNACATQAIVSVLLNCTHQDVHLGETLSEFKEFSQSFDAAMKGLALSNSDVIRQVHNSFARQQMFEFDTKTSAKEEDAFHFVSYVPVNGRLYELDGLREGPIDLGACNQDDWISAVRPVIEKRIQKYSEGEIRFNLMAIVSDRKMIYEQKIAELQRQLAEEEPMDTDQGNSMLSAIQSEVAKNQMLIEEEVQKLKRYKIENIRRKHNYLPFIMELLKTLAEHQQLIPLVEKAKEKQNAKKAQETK
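Assay system: Proteasome-bound UCH37. Buffer or medium: pH 7.4 Tris-HCl (50 mM) with ovalbumin, ATP-MgCl2, DTT. Incubation: 30 min preincubation with enzyme, 25 min cleavage at room temperature. Measured by: fluorescence, ex 355 nm, em 460 nm. Read-out basis: percent inhibition. Control set: wells without proteasome as full block, compound-free enzyme plus substrate as uninhibited.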
FGF22 binding: binders of recombinant human FGF22 by thermal shift; 340,000 tested, 1.5% active; calls only at 9.99 µM; AID 651658; SYPRO orange fluorescence; percent of sucrose octasulfate shift, DMSO zero; Q9HCT0;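 active = melting point raised past a set limit in the mean and every replicate; inconclusive = no clear call; three in four hits are not shown here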
Target sequence (Q9HCT0 whole entry, looked up): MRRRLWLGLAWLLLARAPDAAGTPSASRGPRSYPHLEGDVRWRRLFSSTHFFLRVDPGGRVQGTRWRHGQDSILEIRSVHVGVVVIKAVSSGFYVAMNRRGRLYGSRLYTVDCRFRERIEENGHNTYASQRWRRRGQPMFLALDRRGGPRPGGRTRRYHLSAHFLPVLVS
Vif TR-FRET: inhibitors of Vif binding to APOBEC3G peptide, primary screen, biochemical, TR-FRET, GST-Vif 1-94, biotin-A3G peptide, dose response retest (AID 1117319); TR-FRET GST-Vif / biotin-A3G peptide binding; higher % means a stronger effect; test concentration not given here; strong numbers were not always called active; inhibition, %, or IC50 in µM where a hit was titrated; 260,000 tested, 0.57% active;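 active = above the screen mean plus three standard deviations and confirmed in dose response; inconclusive = results disagree or hit not tested in dose response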;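 note: Vif residues 1-94 fused to GST binding biotinylated APOBEC3G peptide 110-148; 0% = full assay without inhibitor and 100% = GST in place of GST-Vif; retest series ran down from 100 µM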
MLL AF4-AF9 inh: blocks AF4 peptide binding to human AF9; AID 651704; inhibition, % at 10 µM; P42568; 350,000 tested, 0.47% active; AlphaScreen, biotin-AF4 peptide binding to FLAG-AF9;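 active = every replicate reaching a set inhibition limit, whatever the replicate mean, cut at about 25% in these data; inconclusive = mean inhibition reaches that limit but some replicates miss it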;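 note: 0% = plate neutral control median and 100% = total signal loss; the record names both 10 and 1 µM as test concentration; the first replicate is given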
Target sequence (P42568 whole entry, looked up): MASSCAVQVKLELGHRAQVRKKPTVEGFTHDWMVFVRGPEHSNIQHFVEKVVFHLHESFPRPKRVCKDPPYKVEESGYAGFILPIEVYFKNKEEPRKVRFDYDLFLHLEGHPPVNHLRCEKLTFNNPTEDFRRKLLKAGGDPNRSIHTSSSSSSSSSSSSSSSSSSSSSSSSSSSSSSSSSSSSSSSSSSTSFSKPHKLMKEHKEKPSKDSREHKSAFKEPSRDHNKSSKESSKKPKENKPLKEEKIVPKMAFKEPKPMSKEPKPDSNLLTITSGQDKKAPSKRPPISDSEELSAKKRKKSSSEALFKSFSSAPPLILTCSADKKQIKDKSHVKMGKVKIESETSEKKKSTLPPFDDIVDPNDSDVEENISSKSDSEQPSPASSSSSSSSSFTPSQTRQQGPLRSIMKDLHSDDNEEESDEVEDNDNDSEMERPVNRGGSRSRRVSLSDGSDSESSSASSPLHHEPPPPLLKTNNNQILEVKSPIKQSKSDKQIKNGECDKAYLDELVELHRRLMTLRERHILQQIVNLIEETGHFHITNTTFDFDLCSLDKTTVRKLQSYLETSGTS
HNF4A DNA FP: change in binding of human HNF4 alpha to DNA; 360,000 tested, 0.3% active; activity change, % at 10 µM; P41235; HNF4a-FITC DNA binding, fluorescence polarization, 1 h; in the data active = activity change above about 30%, passing the limit was not always enough;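 note: controls were the assay level and a saturating level of protein; the project sought stronger binding though the title names inhibitors; some compounds called inactive have numbers as strong as hits; positive values seem to mean higher polarization but the record does not say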
Numbers without * were called inactive; i = inactive; u = inconclusive; x = not tested or not shown; & = joins results of further samples. Only part of the results is shown; count on the stated rates, not on these rows.

Start of the listing, in advance:
SMILES	RanGTP-Impb inh	E coli growth	UCH37 DUB inh	FGF22 binding	Vif TR-FRET	MLL AF4-AF9 inh	HNF4A DNA FP
COCc1cc(C)nc(N2CCN(c3ccccc3)CC2)c1C#N	5.0	0.71	-7.0	x	6%	x	2.6
Cc1ccc(NC(=S)NCC(C)CSc2ccc(Cl)cc2)cc1 (centres undefined)	-1.5	0.63	0.4	i	5%	8.6	1.9
CC(=O)c1ccc(S(=O)(=O)N(C)CC(=O)Nc2ccc(C)cc2)cc1	x	0.68	4.1	i	14%	-1.4	6.8
OC(CCN1CCCCC1)(c1ccccc1)c1ccccc1	8.0	0.69	5.7	i	16%	-6.7&4.0	0.0

This part in full, from the first entry:
SMILES	RanGTP-Impb inh	E coli growth	UCH37 DUB inh	FGF22 binding	Vif TR-FRET	MLL AF4-AF9 inh	HNF4A DNA FP
COCc1cc(C)nc(N2CCN(c3ccccc3)CC2)c1C#N	5.0	0.71	-7.0	x	6%	x	2.6
Cc1ccc(NC(=S)NCC(C)CSc2ccc(Cl)cc2)cc1 (centres undefined)	-1.5	0.63	0.4	i	5%	8.6	1.9
CC(=O)c1ccc(S(=O)(=O)N(C)CC(=O)Nc2ccc(C)cc2)cc1	x	0.68	4.1	i	14%	-1.4	6.8
OC(CCN1CCCCC1)(c1ccccc1)c1ccccc1	8.0	0.69	5.7	i	16%	-6.7&4.0	0.0
O=C(Nc1ccc(N2CCOCC2)c(Cl)c1)c1cccnc1Cl	0.2	0.68	3.9	x	-8%	x	-3.7
CCN(CC)C(=S)SC1=CCS(=O)(=O)C1	1.6	0.64	5.3	i	x	-2.6	4.4
Clc1ccc(-c2nnnn2-c2ccc(Cl)c(Cl)c2)cc1Cl	-2.7	0.74	-0.8	x	>100µM*	x	-2.0
Cn1c2ccc(F)cc2c2nnc(SCCN3CCOCC3)nc21	-2.5	0.67	12	i	-8%	-3.4	3.9
O=C(c1cccs1)N1C[C@@H](n2cc(C3CC3)nn2)[C@H](O)C[C@@H]1c1ccc(Cl)cc1	x	x	x	i	-8%	1.1	-4.6
O=[N+]([O-])c1cccc(-n2nnnc2CN2CCCC2)c1	3.0	0.71	5.3	i	11%	1.9	-4.1
Cc1ccccc1NC(=S)N(Cc1cccnc1)Cc1ccco1	0.0	0.63	-4.4	i	2%	0.4	-4.7
O=C(C1CC1)N1CCc2cc(Br)cc(S(=O)(=O)NCCCN3CCCC3)c21	-4.6	0.73	1.8	x	4%	x	3.8
Nc1nc(Nc2ccccc2Cl)cc(=O)[nH]1	-2.0	0.66	4.9	i	-12%	4.9	0.4
COc1cccc(CNc2nnnn2C)c1	u	0.61	6.8	i	x	-0.7	3.0
COc1cc(/C=C/C(=O)c2ccc3c(c2)OCCO3)cc(Br)c1OCC(=O)N(C)C	2.3	x	x	i	x	-9.8	-3.0
O=C(COc1ccccc1Cl)Nn1cnnc1	2.7	0.77	0.1	x	-7%	x	1.4
O=C(C(=O)N1CCN(c2ccccc2F)CC1)c1cn(CC(=O)N2CCCC2)c2ccccc12	x	x	x	i	x	-0.5	0.2
COc1ccc(OC)c(C(=O)N2CCCC(Nc3ccc(F)cc3)C2)c1 (centres undefined)	8.3	0.73	0.7	i	-12%	1.0	-1.3
CS(=O)(=O)N(Cc1nnc(-c2cccs2)o1)c1ccc(Cl)cc1F	-1.9	0.73	2.8	x	0%	x	-0.1
C/C(N)=C(/C#N)C(=O)CSc1nc2cc(Cl)ccc2c(=O)n1Cc1ccco1	-2.1	0.69	2.9	i	-8%	-1.4	-2.4
C#CCOCCOCCOCCNc1nc(N2CCOCC2)nc(N2CCN(C(=O)Cn3cc(CCCN=C(N)N)nn3)CC2)n1	-1.3	0.68	5.1	i	0%	0.1	3.5
Cc1[nH]n(-c2cccc3ccccc23)c(=O)c1C=Nc1ccc2[nH]c(=O)[nH]c2c1	u	0.72	11	x	20%	x	11
CSCC[C@H](N)C(=O)NC[C@H]1CC[C@H](C(=O)N[C@@H](Cc2ccccc2)C(=O)O)CC1	-1.8	x	x	i	4%	-0.6	0.4
COC(=O)c1ccc(COc2ccc3c(c2)CCC3)o1	-1.2	0.65	5.1	i	-3%	1.3	-2.1
COCC(C)n1c(SCC(=O)Nc2nccs2)nc2ccccc2c1=O (centres undefined)	x	x	x	i	u	-2.2	4.2
Cc1ccc(CN2CCC(c3nc4ccc(Cl)cc4[nH]3)CC2)cc1	1.1	0.64	7.0	i	12%	6.8	6.5
COc1ccc(N=Cc2ccc(CNS(=O)(=O)c3ccc(Cl)cc3)o2)cc1	3.3	x	x	x	14%	x	-0.2
CCCN(CC1CC1)c1nc(N)c2c(N)nc(OC)cc2c1C#N	-2.3	0.74	-115	x	4%	x	13
Cc1ccnc(NC2OC(=O)c3ccccc32)c1 (centres undefined)	-9.3	x	-2.3	x	0%	x	-0.2
Cc1cccc(-c2noc(-c3ccc4c(c3)OCO4)n2)c1	5.1	0.72	0.4	i	-13%	-1.6	8.3
Cc1cc(C)n2nc(N)c(N=Nc3ccc(Cl)cc3)c2n1	-4.8	0.72	5.1	x	-7%	x	1.8
C/C(=N\n1cnnc1)c1ccccc1	3.2	x	x	i	-6%	-1.0	3.1
CCC1Oc2ccc(C)cc2N(CC(=O)NCCN2CCOCC2)C1=O (centres undefined)	-2.0	0.68	3.3	i	x	5.3	-0.5
CCOc1ccc(N2C(=O)C(Cl)=C(Nc3ccccc3O)C2=O)cc1	-2.7	0.64	4.8	x	9%	x	9.3
CCOc1ccccc1CNC(=O)CCC(=O)N1Cc2ccccc2Oc2ncccc21	0.7	0.65	1.3	i	x	1.4	-4.6
COc1ccc(C)c2sc(NC(=O)C3=COCCO3)nc12	-4.0	0.72	-28	i	u	3.7	-0.6
CCCCn1c2ccc(F)cc2c2nnc(NN)nc21	5.3	0.7	8.2	i	-3%	-2.0	-0.2
O=C1Nc2ccccc2C1=Nc1ccc(Br)cc1	3.7	0.66	0.9	i	4%	0.9	1.4
Cc1cc(C=C2C(=O)c3ccccc3C2=O)c(C)n1-c1ccccc1	-2.5	0.77	-17	x	8%	x	-35
CCCCCCOC(=O)NCC(O)c1ccccc1 (centres undefined)	-2.5	0.65	0.1	x	1%	x	-0.4
COc1ccnc(NCc2cccnc2)c1C#N	u	0.71	-11	i	0%	-12	0.3
O=C(Nc1ccc(F)c(Cl)c1)c1cc(C2CCCCN2C(=O)CCCc2ccccc2)on1 (centres undefined)	x	x	x	i	x	-3.9	-0.8
Cc1ccc(C)c(NC(=O)CSc2nc3c(c(=O)n2C)SC(C)C3)c1 (centres undefined)	u	0.72	7.3	i	8%	-0.4	2.7
CC(=O)Oc1ccc2cc(-c3ccccc3)c(=O)oc2c1	81*	0.65	-439	i	-1%&3%	1.1	-4.4
CCCCN(CC)Cc1ccc(CNC(=S)Nc2cccc(F)c2)o1	-1.1	0.65	5.3	i	-12%	6.3	4.3
CSc1sc(-c2ccnc(=S)[nH]2)c(-c2ccccc2)c1C#N	1.2	0.6	-27	i	-12%	0.7	2.5
COc1cccc(CNc2nc3cc(-c4ccc(C(=O)N5CCN(C)CC5)cc4)sc3c(=O)n2C)c1	x	x	x	i	x	1.8	1.9
CCCN(C(=O)Cn1ncc2c(=O)oc3ccccc3c21)c1cccc(C)c1	0.3	0.71	-0.3	x	-1%	x	-2.8
C=CCN(c1ccccc1)S(=O)(=O)c1cccc(C(=O)NNC(=O)c2ccccc2O)c1	-4.7	0.7	-2.1	i	-4%	-9.9	-0.5
CSCCC(NC(=O)c1ccco1)C(=O)NCC(c1ccccc1)N(C)C (centres undefined)	x	0.7	-3.3	i	-1%	4.5	3.6
(next part)
SMILES	RanGTP-Impb inh	E coli growth	UCH37 DUB inh	FGF22 binding	Vif TR-FRET	MLL AF4-AF9 inh	HNF4A DNA FP
COc1ccc(S(=O)(=O)N2CCC(C(=O)N3CCC(C(N)=O)CC3)CC2)cc1Cl	2.0	0.67	0.1	i	0%	0.4	1.5
Cc1cc(C=O)c(C)n1-c1ccc(Oc2ccc([N+](=O)[O-])cn2)cc1	2.3	0.67	5.8	i	x	-1.2	3.0
CCC(C)/C=C/C1=CC2=C(Cl)C(=O)C3(C)OC(=O)C(C(=O)C(C)C(C)O)C3C2=CO1 (centres undefined)	88*	0.72	-10	i	x	-2.1	4.9
Cc1csc(N(C(=O)Cc2ccccc2F)c2ccccc2)n1	-11	0.68	3.0	i	x	-0.4	-5.1
COc1ccc(N2CCN(C(=O)c3cn(C4CCCC4)c(=O)c4c3c3ccccc3n4C)CC2)cc1	-0.3	0.69	-1.6	x	0%	x	-0.6
COc1ccc(CCNC(=O)c2cn3ccc(C)cc3n2)cc1OC	u	0.69	3.0	i	x	-0.3	0.3
O=S(=O)(Nc1ccc(-n2cnnn2)cc1)c1ccc(F)c(F)c1F	-4.6	0.68	1.5	i	5%	5.2	1.2
COCCN1C(=O)N[C@@H](c2cccc(C(F)(F)F)c2)C(C(=O)OC)=C1C	-3.9	x	0.2	x	x	x	-3.5
C=C1C(=O)[C@]23C[C@H]1CCC2[C@@]1(C)C(C[C@@H]3O)[C@](C)(C(=O)O)C[C@H](O)[C@@H]1O (some centres undefined)	x	x	x	i	x	1.9	-1.9
Cc1ccc(S[C@@H](CCN2CC[C@H](C)CCC2=O)c2ccccc2)cc1	-0.2	x	-1.8	i	x	-3.3	2.1
CC(Sc1nnc(-c2ccncc2)n1C)C(=O)Nc1ccc(N2CCOCC2)cc1 (centres undefined)	x	0.7	3.1	i	2%	1.8	4.2
CCCn1ncc(CN2CCN(Cc3ccc(C)o3)C(CCO)C2)c1C (centres undefined)	2.6	0.64	2.2	i	u	-6.6	4.0
CC(C(=O)N1CCc2ccccc21)N1CCN(S(=O)(=O)c2cccc(C(F)(F)F)c2)CC1 (centres undefined)	x	0.71	-2.0	i	-7%	-2.9	-0.7
CCOc1ccc(NC(=O)Cn2cc(C(=O)CC)c3ccccc32)cc1	0.8	0.7	6.0	x	-7%	x	0.7
CC1CCCCC1NC(=O)CSc1nnc(-c2ccncc2)n1CCCN(C)C (centres undefined)	0.3	0.68	5.1	i	x	-6.2	1.0
O=C(NC1CC1)c1ccc2c(c1)N(Cc1ccccc1)CCS2	0.2	0.69	i	i	x	-0.3	-0.8
CCCCn1c(=O)c2c(c3ccccc31)OCC(=O)N2	2.3	0.78	2.5	x	x	x	x
C#CCOCCOCCOCCNc1nc(N2CCN(C(=O)Cn3cc(CCO)nn3)CC2)nc(N2CCN(C(=O)[C@H](C)n3cc(CCCN=C(N)N)nn3)CC2)n1	x	x	x	i	x	-2.5	1.4
CCOC(=O)c1cc(NC(=O)NCc2ccco2)c(C)nc1C	3.6	0.71	-1.2	x	-1%	x	-6.6
N#C/C(=C\c1ccc(Cl)s1)C(=O)N1CCN(c2ccccc2)CC1	-4.0	0.68	1.7	x	2%	x	0.6
COC(=O)c1cc(OC)c(OC)cc1NC(=S)N1CCCCC1	x	0.66	5.4	i	30%	u	2.3
O=C(Nc1ccc2snnc2c1)N1CCOCC1	2.6	0.64	-1.1	x	-2%	x	-3.4
Cc1ccc(S(=O)(=O)N2[C@@H](Cc3ccccc3)CO[C@H]2CC(=O)c2cccc3ccccc23)cc1	x	x	x	i	x	0.1	-1.8
Cc1ccc(OCC(O)Cn2c(N3CCCCC3)nc3c2c(=O)[nH]c(=O)n3C)cc1 (centres undefined)	-5.1	0.66	2.9	i	-1%	-1.5	5.7
O=C(NCCNC(=O)c1ccc(-c2cccc(Cl)c2)o1)c1cnccn1	x	x	x	i	3%	1.9	4.8
CCc1c(C)nc2c(OC)cccc2c1Cl	-2.7	0.65	-5.0	i	x	-0.8	6.8
